# High-throughput results deposited in PubChem BioAssay by National Center for Advancing Translational Sciences (NCATS).
# gsp agonist = gsp mutant agonism; gsp mutant cells, cAMP HTRF, 30 min; control for the full effect not named in the record; Potency, µM (titrated, usually from 76.9 µM), for inactives: at the highest dose activation (cAMP increase), hits mostly activators; 340,000 tested, 0.13% active; active = well fitted activation curve with a large enough effect; inconclusive = small, poorly fitted or top-dose-only effect, or another doubt; inactive = no such curve, though single readings can be large or run the other way; cell line not stated here;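 also: phosphodiesterase inhibitor Ro 20-1724 added with compounds to block cAMP breakdown; potency is read from the fitted curve at half-maximal effect; nearly all actives have a fitted effect of over 60% in size; about a fifth of the inactives were tested at one dose only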
#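 Cells stably selected in G418 were plated at 2000/well, grown 16-24 hr, then given compounds in DMSO with the PDE inhibitor […] (300 uM solution added) for 30 min at 37C; cAMP was read by HTRF.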
# D2 PAM = potentiates the human D2 dopamine receptor allosterically; potentiation, % (no concentration beside the values); DiscoveRx D2 beta-arrestin cells, luminescence, 90 min; 100% = 57 uM dopamine signal; 360,000 tested, 0.23% active; AID 624464; P14416; active = potentiation of 50% or more; inconclusive = 30% to 50%; inactive = 30% or less;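 also: compound concentration not given in the record; tested on top of an EC20 dose of dopamine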
# Target sequence (P14416 whole entry, looked up): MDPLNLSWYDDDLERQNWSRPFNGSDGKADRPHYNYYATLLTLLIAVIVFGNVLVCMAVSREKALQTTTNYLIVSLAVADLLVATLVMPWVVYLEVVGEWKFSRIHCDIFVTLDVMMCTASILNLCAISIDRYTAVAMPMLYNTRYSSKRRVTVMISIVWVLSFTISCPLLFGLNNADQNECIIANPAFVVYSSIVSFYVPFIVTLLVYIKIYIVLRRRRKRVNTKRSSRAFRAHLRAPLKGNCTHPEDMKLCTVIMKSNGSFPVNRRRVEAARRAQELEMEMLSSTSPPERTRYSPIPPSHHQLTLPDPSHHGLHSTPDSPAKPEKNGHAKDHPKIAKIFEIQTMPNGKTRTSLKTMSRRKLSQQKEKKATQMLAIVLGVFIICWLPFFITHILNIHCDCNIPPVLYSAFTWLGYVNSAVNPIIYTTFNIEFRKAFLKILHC
#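 PathHunter beta-arrestin assay in DiscoveRx D2 cells. Compounds were added with an EC20 of dopamine (50 nM final) for 90 min at 37 deg C. Luminescence was read 1 h after detection reagent, with 57 uM dopamine as the EC100 control.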
# CtBP-E1A blk = CtBP/E1A binding inhibition; AlphaScreen GST-E1A/His-CtBP binding, 1536-well; stronger effect = lower value; control for the full effect not named in the record; activity change, % (concentration not given with the values); 340,000 tested, 0.49% active; in the data active means activity change below about -65%; inconclusive means about -30% to -65%; inactive means above about -30%; also: % is scaled to controls: 0 for no effect and ±100 for the full control effect
#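 Homogeneous bead-based format: GST-tagged E1A captured on glutathione donor beads, His-tagged CtBP on nickel acceptor beads; compounds precede bead addition by 2 h at 37 °C.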
# D2 ag = human D2 receptor agonism in beta-arrestin assay | DiscoveRx PathHunter D2 beta-arrestin, luminescence, 90 min; 100% = 57 uM dopamine signal | activation, % (no concentration beside the values) | 360,000 tested, 0.084% active | P14416; in the data active = activation above about 40%; inconclusive = about 15% to 40%; inactive = below about 15%; also: compound concentration not given in the record; the text of the record calls up to 30% inactive
#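 Agonist mode: compounds alone added to overnight-plated D2 PathHunter cells for 90 min at 37 C, with 57 uM final dopamine (EC100) defining full response. Beta-arrestin recruitment detected by chemiluminescent reagent, read after 1 h at ambient temperature.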
# gsp antag = antagonizes gsp, the McCune-Albright syndrome mutation | Potency, µM (highest dose often 76.9 µM), for inactives: top-dose activity change, negative = inhibition, most hits filed as inhibitors | gsp-mutant cells, cAMP HTRF, 30 min; control for the full effect not named in the record | AID 624288 | 340,000 tested, 0.4% active; active = falling curve of any shape with a large fitted effect; inconclusive = falling curve, mostly with a smaller effect; inactive = flat or rising curve; cell line not stated here;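 also: intracellular cAMP measured with PDE inhibitor Ro 20-1724 present during compound exposure; potency is read from the fitted curve at half-maximal effect; % is scaled to controls: 0 for no effect and ±100 for the full control effect; nearly all actives have a fitted effect of over 65% in size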
#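 Cells in G418 medium, seeded 16-24 h, 37C; buffer exchange to DPBS + 1 mM CaCl2, 0.5 mM MgCl2, 0.05% BSA; cpds in DMSO + […] (300 uM stock), 30 min 37C; HTRF cAMP detection.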
# Six1-Eya2 inh = blocks human Six1 binding to Eya2; Q15475+O00167; AlphaScreen GST-Six1/His-Eya2 binding, biochemical; stronger effect = lower value; control for the full effect not named in the record; activity change, % (concentration not given with the values); 360,000 tested, 0.56% active; AID 651725; in the data active = activity change below about -65%; inconclusive = about -30% to -65%; inactive = above about -30%; also: % is scaled to controls: 0 for no effect and ±100 for the full control effect
#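 AlphaScreen luminescence read after one hour at 37 °C in darkness. Pin-transferred compounds met GST-Six1 and His-Eya2 protein (5X stock 250 nM/500 nM) plus glutathione donor and Ni-chelate acceptor beads (5X, 50 ug/mL).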
# Starred values were filed as active, the others as inactive; u = inconclusive; x = no result given; [ ] = remark or other dose.
SMILES,gsp agonist,D2 PAM,CtBP-E1A blk,D2 ag,gsp antag,Six1-Eya2 inh
O=C(Cn1cnc2scc(-c3ccc(F)cc3)c2c1=O)N1CCOCC1,4%,0,2,-2.9,4%,3
CCOC(=O)N1CCC(NCCNC(=O)c2ccc(Cl)cc2)CC1,-34%[inhibitor],-29,-2,-0.3,14%,-5
C=CC[C@@H](CC(=O)N(CCO)Cc1ccccc1)C(=O)N[C@H](COC(=O)[C@@H](CC=C)CC(=O)OC(C)(C)C)C(C)(C)C,x,-11,2,-1.1,-19%,3
Cc1cc(C=O)c(C)n1-c1ccc(N2CCCCC2)c([N+](=O)[O-])c1,11%,-18,u,-7.9,-6%,u
O=[N+]([O-])c1ccc(N2CCN(c3ccccc3O)CC2)cc1,9%,2,-1,0.7,-1%,3
O=C1NCCN(Cc2cccc(Oc3ccccc3)c2)C1CC(=O)N1CCCCC1 (stereo not drawn),-14%,-5,-8,-4.0,1%,-2
COc1ccc(/C=C/C(=O)NCc2ccc(F)cc2)cc1S(=O)(=O)N1CCOCC1,0%[15.4 µM],-5,0,u,2%,-4
CCCCCC(=O)NC(Nc1ccc(S(N)(=O)=O)cc1)C(Cl)(Cl)Cl (stereo not drawn),-1%,-12,2,-4.4,7%,10
Nc1ccc2c(c1)CC(=O)c1ccccc1S2,-2%,-19,0,-3.6,8%,-8
Cc1cccc(C)c1NC(=S)N(C)CCc1ccccn1,8%,-11,0,-6.6,21%,-5
Cc1cccc(NC(=O)Nc2cnccn2)c1C,17%,-10,7,-2.5,6%,-6
C=CCN(c1ccccc1)S(=O)(=O)c1cccc(C(=O)Oc2ccc3c(C)cc(=O)oc3c2)c1,-12%[15.4 µM],0,2,2.7,-6%,-8
NC(=O)c1ccc(NC(=O)C2CCCO2)cc1 (stereo not drawn),-28%,11,-2,-2.3,-11%,-1
COc1cc(Sc2ccc(C)cc2)c(OC)cc1N,7%,7,u,-1.2,-6%,u
Cc1ccc(C(C(=O)NCC2CCCO2)N(Cc2ccccc2F)C(=O)Cn2nnc(-c3cccs3)n2)cc1 (stereo not drawn),-40%[inhibitor],-11,0,-2.4,-4%,-4
COc1ccccc1CC(=O)NNS(=O)(=O)c1ccccc1[N+](=O)[O-],14%[15.4 µM],-5,14,-9.7,-6%,8
CC(=O)Nc1cc2c(cc1NC(=O)Cn1nc(-c3ccc(F)cc3)ccc1=O)OCCO2,28%[15.4 µM],-4,-1,-0.4,-23%,7
COc1ccc(N2CC(C(=O)N3CCN(S(=O)(=O)c4ccc(F)c(F)c4)CC3)CC2=O)c(OC)c1 (stereo not drawn),-55%[inhibitor],-2,2,1.4,12%,-1
Cc1nn(C)c(C)c1CCC(=O)N1CCCC(N2CCN(c3ccc(F)cc3)CC2)C1 (stereo not drawn),11%,-1,2,-9.1,17%,1
Cc1nccn1CCc1nc(N)nc(N)n1,0%,-7,3,-1.6,3%,4
COc1ccc(S(N)(=O)=O)cc1C(=O)OCCCOc1ccc(F)cc1,-9%[15.4 µM],-2,0,2.0,-9%,-7
O=C(CC(=O)N/N=C/c1ccc(F)cc1)N/N=C/c1ccc(F)cc1,-5%,-24,x,-5.7,-6%,1
O=C(CN(Cc1ccccc1Cl)C(=O)c1csnn1)NCCc1ccccc1,13%[15.4 µM],-24,28,-2.6,x,5
O=C(COc1ccc(Br)cc1)N1CCOCC1,4%,0,7,-5.6,-5%,-7
CCCC(=O)C1=C(O)C(c2cccc(Oc3ccccc3)c2)CCC1=O (stereo not drawn),-36%[inhibitor],-5,x,4.5,5%,11
O=C(NCc1ccccn1)/C(=N/O)c1ccccc1,-29%,-7,5,-0.3,3%,-2
CCOC(=O)c1ccc(Nc2ccc([N+](=O)[O-])cn2)cc1,-39%[inhibitor],-13,-8,0.2,11%,5
COc1cc(OC)cc(C(=O)NCc2ccc3c(c2)cc(C)n3C)c1,-1%,-12,-14,-1.0,-13%,-28
Nc1nonc1-c1nc2ccccc2n1Cc1ccccc1,-22%,u,7,1.6,-9%,4
CC(C)c1cc(N=NC(N)=O)cc(C(C)C)c1O,-13%,-5,x,1.3,1%,-13

# As entered above:
# gsp agonist, `Nc1ccc2c(c1)CC(=O)c1ccccc1S2` stands at -2%
# Six1-Eya2 inh, `COc1ccc(/C=C/C(=O)NCc2ccc(F)cc2)cc1S(=O)(=O)N1CCOCC1` stands at -4

# Other compounds follow.
SMILES,gsp agonist,D2 PAM,CtBP-E1A blk,D2 ag,gsp antag,Six1-Eya2 inh
C/C(=N/NC(=O)CNC(=O)c1cccc(F)c1)c1ccc2c(c1)CCCC2,8%[15.4 µM],-7,4,-3.7,6%,10
O=C(COC(=O)CCNS(=O)(=O)c1ccccc1F)Nc1nnc(-c2ccccc2)o1,14%[15.4 µM],9,-17,-5.6,-7%,-21
CN1CCc2c(sc(NC(=O)c3ccco3)c2C(N)=O)C1,-10%,-15,-27,-2.3,-2%,-5
CC1(C)Cc2c(sc(NC(=O)Cc3ccccc3)c2C#N)CO1,0%[15.4 µM],2,10,0.0,12%,6
CCc1cccc(NC(=S)N(CCOC)C2CCN(C(C)=O)CC2)c1,6%,-1,-13,4.8,-5%,1
CC(=O)Nc1cc(C(=O)NCCN2CCN(Cc3ccccc3)CC2)ccc1Sc1ccc(C)cc1,22%[15.4 µM],-9,1,-7.3,6%,15
CCCc1cc(=O)oc2c(C)c(O)c(CN3CCCCC3)cc12,21%,-5,7,-4.1,1%,5
COc1ccc(S(=O)(=O)Nc2cccc(NC(C)=O)c2)cc1,27%,0,2,-0.9,-19%,-1
C=CCC1CCCCC12NC(=O)NC2=O (stereo not drawn),25%,15,5,-0.6,-3%,-2
Cc1ccc(C(=O)c2cc([N+](=O)[O-])ccc2N2CCOCC2)c(C)c1,-75%[inhibitor],0,-4,-3.6,5%,-10

# Single records, as listed above. Order of screens: gsp agonist | D2 PAM | CtBP-E1A blk | D2 ag | gsp antag | Six1-Eya2 inh
# Listed for O=C1NCCN(Cc2cccc(Oc3ccccc3)c2)C1CC(=O)N1CCCCC1 (stereo not drawn) : -14% | -5 | -8 | -4.0 | 1% | -2
# Listed for C=CC[C@@H](CC(=O)N(CCO)Cc1ccccc1)C(=O)N[C@H](COC(=O)[C@@H](CC=C)CC(=O)OC(C)(C)C)C(C)(C)C : x | -11 | 2 | -1.1 | -19% | 3
# Listed for O=C(COc1ccc(Br)cc1)N1CCOCC1 : 4% | 0 | 7 | -5.6 | -5% | -7
# Listed for CC1(C)Cc2c(sc(NC(=O)Cc3ccccc3)c2C#N)CO1 : 0%[15.4 µM] | 2 | 10 | 0.0 | 12% | 6

# Next section.
SMILES,gsp agonist,D2 PAM,CtBP-E1A blk,D2 ag,gsp antag,Six1-Eya2 inh
CCOC(=O)C1(C)CCN1C(=O)c1cccc(C#N)c1 (stereo not drawn),x,-12,6,-3.3,x,1
CCN(CC)C(=O)Cn1c(=O)n(CC(=O)N2CCCCC2)c(=O)c2sccc21,36%,6,11,-2.4,18%,1
COc1ccc(CN2CCN(C(=O)c3cccc(OC)c3OC)CC2)cc1OC,11%[15.4 µM],-8,26,6.2,-35%,4
Cc1cc(F)ccc1S(=O)(=O)N1CCCOC1CNC(=O)C(=O)NCc1ccncc1 (stereo not drawn),-2%[15.4 µM],-2,7,-1.6,14%,5
CCOC(=O)c1ccc2c(c1)nc(C1CCN(S(=O)(=O)c3cccs3)CC1)n2CC,-44%[inhibitor],-7,8,4.3,u,0
CCOc1ccc(C(=S)N2CCCC2)cc1,-2%,-8,8,0.0,16%,1
O=C(Nc1ccc(N2CCCCC2)cc1)c1ccccc1,-26%,-2,8,1.0,u,-16
COc1ccc(C)cc1S(=O)(=O)NCCN1CCOCC1,-1%[15.4 µM],-8,0,-2.8,3%,8
COc1ccc(/C(C)=N/NC(=O)CNC(=O)c2ccncc2)c(OC)c1,-7%,-13,-7,1.6,12%,13
S=C(NCCc1ccc(Cl)cc1)NCc1ccco1,20%[15.4 µM],-11,4,-0.6,-5%,2
S=C(Nc1ccccc1)N1CCCCCCC1,18%[15.4 µM],-5,3,-2.5,5%,4
COc1ccc(CC(N)c2csc(Nc3nncc4ccccc34)n2)cc1 (stereo not drawn),x,-6,-6,2.3,x,-1
Cc1ccnc(NC(c2ccsc2)c2ccc3ccc(C)nc3c2O)c1 (stereo not drawn),14%,-7,-4,-3.0,-19%,-18
O=C(CCc1ccccc1)NC1CCCc2ccccc21 (stereo not drawn),-64%[inhibitor],-20,-1,-9.4,0%,3
CC(C)(C)NC(=O)C(c1ccccc1)N(C(=O)c1csnn1)C1CC1 (stereo not drawn),-3%,4,8,-3.6,14%,6
OCCC1CN(Cc2ccc3nsnc3c2)CCN1C1CCCC1 (stereo not drawn),49%,-6,-1,-5.4,9%,4
O=C1c2ccccc2C(=O)N1CCCCN(C(=O)c1ccco1)c1ccc(Cl)cc1,-47%[inhibitor],-13,-1,-0.9,-10%,-11
CC(C)CC(=O)Nc1c2c(nn1-c1ccc(F)cc1)CS(=O)(=O)C2,-17%,0,7,1.0,-1%,11
O=C(C1=C(O)C(=O)N(CCN2CCOCC2)C1c1ccc(F)cc1)c1cc2ccccc2o1 (stereo not drawn),u,-10,x,-3.8,17%,3
Cc1sc2c(=O)n3c(nc2c1C(=O)NCCCN1CCOCC1)CCCCC3,-4%,3,1,-2.1,-7%,-4
C[C@@H]1CCCCO[C@H](CN(C)C(=O)CCC(F)(F)F)[C@@H](C)CN([C@H](C)CO)C(=O)c2cc(NC(=O)c3ccncc3)ccc2O1,-130%[inhibitor],-4,-15,-5.9,x,-18
COc1ccc(-c2ncncc2-c2ccccc2)c(O)c1,-34%[inhibitor],7,-2,-3.8,7%,3
CSCCC(NC(=O)c1ccccc1Br)C(=O)NNC(=O)c1csc(N2CCOCC2)n1 (stereo not drawn),-16%[15.4 µM],-1,0,-5.2,-4%,-9
Cc1csc(=O)n1CC(=O)OCC(=O)c1c(N)n(CC(C)C)c(=O)n(C)c1=O,-8%[15.4 µM],-1,1,-2.6,-21%,-11
Cc1ccc(S(=O)(=O)NC(C(=O)Oc2ccc3ccc(=O)oc3c2)c2ccccc2)cc1 (stereo not drawn),u,-16,3,-3.5,8%,-5
COc1ccc(-c2cc(C)no2)cc1S(=O)(=O)N1CCN(C(=O)c2ccco2)CC1,-38%[inhibitor],-7,-7,-1.1,-9%,-5
CCC(Sc1nc2cc(OC)c(OC)cc2c(=O)n1Cc1ccc(OC)cc1)C(=O)NCCOC (stereo not drawn),u,-2,0,-2.4,-6%,2
O=C(O)/C(=C\c1cccc(OCc2ccccc2)c1)c1ccc(F)cc1,13%[15.4 µM],-4,12,2.4,-43%,0
c1ccc(Oc2ccc(-c3ccnc4ncnn34)cc2)cc1,-1%[15.4 µM],1,0,-8.4,-9%,12
CN(C)N1C(N)=C(C#N)C(c2cccc([N+](=O)[O-])c2)C2=C1CC(C)(C)CC2=O (stereo not drawn),-4%[15.4 µM],-5,7,0.6,5%,0
CCCOc1ccc(N2C(=O)CC(N(Cc3ccc(S(N)(=O)=O)cc3)C(=O)CC)C2=O)cc1 (stereo not drawn),4%,-5,0,-1.1,5%,7
